CBX7 inh = blocks human CBX7 binding to H3K27me3 peptide; AID 1224903; O95931; AlphaScreen His6-CBX7 / biotin-H3K27me3 peptide binding; active compounds read low; normalised signal (fraction of DMSO) (no concentration beside the values); actives 1.1% (n = 66,000); in the data active = normalised signal below about 0.5;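 also: 100 nL library stock added to about 20 µL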
Target sequence (O95931 whole entry, looked up): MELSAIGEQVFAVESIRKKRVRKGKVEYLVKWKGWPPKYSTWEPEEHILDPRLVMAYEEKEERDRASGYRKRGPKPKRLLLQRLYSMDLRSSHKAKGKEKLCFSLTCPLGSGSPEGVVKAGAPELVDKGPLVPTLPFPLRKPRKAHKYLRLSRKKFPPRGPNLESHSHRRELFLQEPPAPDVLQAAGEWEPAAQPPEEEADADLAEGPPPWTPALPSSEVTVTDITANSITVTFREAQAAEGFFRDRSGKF
CBX7 inh z-score = second read-out of CBX7 inh, no call of its own (marks repeat the call); z-score; measured here: z-score of CBX7 signal; some inactives read as strong as hits; reference of the scale not given here;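 same signal on another scale; lower means less binding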
* hit, by the source's call.

SMILES | CBX7 inh | CBX7 inh z-score
Cc1nc2cc(NC(=O)c3ccc(S(=O)(=O)N4CCOCC4)cc3)ccc2s1 | 1.1 | 1.6
CCN(CC)C(=O)COc1ccc(-c2nnc(Nc3ccc(F)cc3)c3ccccc23)cc1 | 0.79 | -2.4
COc1cc2c(cc1OC)C(c1ccc(-c3ccccc3)cc1)CC(=O)N2 (configuration not stated) | 0.61 | -1.6
COc1ccc(-c2noc(CCC(=O)NCc3cc(Br)ccc3OC)n2)cc1 | 0.85 | -0.15
COc1cccc(CNC(=O)CN2C(=O)COc3ccc(Cl)cc32)c1 | 0.83 | -0.34
CCOc1ccc(-c2cc(CCCC(=O)NCc3ccccn3)no2)cc1 | 1 | 0.48
Cc1cc(C)nc(SC(C(=O)O)c2ccccc2)n1 (configuration not stated) | 1.2 | 1.9
COc1ccc(-c2nc(SCC(=O)NCC3CCCO3)c(-c3ccc(Cl)cc3)[nH]2)cc1 (configuration not stated) | 1.1 | 2.5
CN(C)c1ccc(NC(=O)c2cc3c(n(-c4ccc(Cl)cc4)c2=O)CCCC3=O)cc1 | 1.1 | 0.22
COc1ccc(CCNC(=O)c2cc3c(s2)-c2ccccc2OC3)cc1OC | 1.2 | 9.2
O=C(Nc1c2c(nn1-c1ccc(F)cc1)CSC2)C1(c2ccc(Cl)cc2)CCCC1 | 0.97 | -0.73
CCOc1ccc2nc(N3CCC(C(=O)Nc4ccc(C)c(Cl)c4)CC3)sc2c1 | 0.98 | -0.65
Cc1ccc(CCN2C(=O)CCC2(C)C(=O)NC2CCCCCC2)cc1 (configuration not stated) | 0.97 | -0.85
CCOc1ccc(CCNC(=O)C2CCN(S(=O)(=O)c3cnc[nH]3)CC2)cc1OCC | 0.89 | -1.4
Cc1ccc(CNC(=O)CC2(CC3=NS(=O)(=O)c4ccccc4N3)CCCC2)cc1 | 1.1 | 4.6
CC(=O)N1CCc2cc(S(=O)(=O)NCc3ccccc3)ccc21 | 1.5 | 1.9
C=CCn1c(SCC(=O)Nc2ccc(C)cc2C)nnc1-c1cccnc1 | 1 | 0.31
Cc1oc2cc(OCC(=O)O)ccc2c(=O)c1-c1ccc2c(c1)OCCO2 | 0.96 | -0.7
CCn1c(C(=O)N2CCCC(C(=O)NCCc3ccc(C)cc3)C2)cc2sccc21 (configuration not stated) | 0.81 | -5.4
CCSc1oc(-c2ccc(C)cc2)nc1S(=O)(=O)c1ccc(C)cc1 | 0.98 | -0.043
N#Cc1nc(COc2ccc(Cl)cc2)oc1NCCc1ccccc1 | 0.73 | -1.7
COc1ccc(CCNc2nc(-c3sc(N)nc3C)cs2)cc1OC | 0.35* | -13*
CCCc1cc(C(=O)Nc2cnn(Cc3ccccc3C)c2)no1 | 0.99 | -0.28
Cc1sc2nc(Cc3ccccc3)nc(N3CCCC3)c2c1C | 0.76 | -2.4
COc1ccc(CCNc2cc(C)nc3nc(C)nn23)cc1OC | 1 | 0.62
O=C(Nc1ccc2oc(-c3ccc(F)cc3)nc2c1)c1ccccc1 | 1.1 | 2.3
CN(C)c1oc(C(c2ccccc2)c2ccccc2)nc1S(=O)(=O)c1ccc(Cl)cc1 | 0.91 | -0.89
Cc1ccccc1CN1CCN(CC(=O)NCc2ccc(F)cc2)C1=O | 0.87 | -2
CCOc1ccc(-n2c(Cc3cc(=O)[nH]c(=O)[nH]3)nnc2SCc2ccc(F)cc2)cc1 | 1 | 0.12
COCCNC(=O)c1nc(-c2ccccc2C)oc1C | 1.1 | 0.48
COCCNC(=O)CCc1c(C)nc2cc(-c3cccc(F)c3)nn2c1C | 1 | 0.26
Cc1sc2ncn(CC(=O)NCc3ccccn3)c(=O)c2c1S(=O)(=O)N1CC(C)CC(C)C1 (configuration not stated) | 1 | 0.053
CCOc1ccc(-n2ccnc2SCC(=O)Nc2nccs2)cc1 | 0.93 | -0.097
Cc1ccc(C(=O)Nc2sc3c(c2C(=O)Nc2ccccn2)CCC(C)C3)cc1 (configuration not stated) | 1.4 | 9.5
CCOc1ccccc1Nc1nc(-c2ccc(Cl)cc2)nc2ccccc12 | 1 | 0.36
COc1ccc(C2CC(=O)Nc3cc4c(cc32)OCO4)cc1 (configuration not stated) | 0.97 | -0.92
Cc1csc2ncc(C(=O)Nc3cccc4ccccc34)c(=O)n12 | 0.98 | -0.15
Cc1ccc(NC(=O)CC2Sc3ccc(C(F)(F)F)cc3NC2=O)cc1C (configuration not stated) | 1 | 0.1
CCN(Cc1ccccc1)C(=O)CCc1nc(-c2ccc(C)cc2)no1 | 1.1 | 2
CC(C)Oc1ccc(C2CC(=O)Nc3cc4c(cc32)OCCO4)cc1 (configuration not stated) | 0.8 | -2.5
O=C(Nc1nc(-c2cccs2)cs1)c1ccncc1 | 0.98 | -0.061
COc1ccc(C(=O)c2nocc2C(=O)c2ccccc2)cc1 | 1.2 | 1.6
COc1cccc(-c2nc(CS(=O)(=O)CC(=O)NCc3ccccc3Cl)c(C)o2)c1 | 1.1 | 1.5
COc1ccc(NC(=O)c2cc(-c3ccc(F)cc3)on2)cc1 | 1.1 | 0.088
Cc1ccc(CNC(=O)C2CCCN(c3nnc(-n4cccc4)s3)C2)cc1 (configuration not stated) | 1.1 | 3.1
COc1ccc(-c2cn(-c3ccc(C)c(C)c3)c(=O)[nH]2)cc1OC | 1 | 0.3
Cc1ccc(N2CCN(c3cc(C)nc4ncnn34)CC2)c(C)c1 | 0.9 | -1.3
O=S(=O)(Nc1ccc2oc(-c3ccccc3)nc2c1)c1ccccc1 | 1 | 0.27
CCCCNC(=O)C1CCN(Cc2nc(-c3ccc(Cl)cc3)oc2C)CC1 | 1 | 0.18
COc1ccc(NC(=O)c2cccc(NC3=NC4CS(=O)(=O)CC4S3)c2)c(OC)c1 (configuration not stated) | 0.99 | -0.51
CCOC(=O)c1cc(-c2nnc(-c3ccc(Cl)cc3)o2)c(C)nc1C | 1.1 | 0.73
CC(=O)Nc1cccc(Oc2ncnc3scc(-c4ccc(C(C)C)cc4)c23)c1 | 0.77 | -0.47
Nc1ccc(Cl)c(-c2nc3ccccc3o2)c1 | 1 | 0.5
NC(=O)c1oc2ccccc2c1NC(=O)c1ccc(S(=O)(=O)N2CCCc3ccccc32)cc1 | 0.79 | -3.2
O=C(C1CCN(c2nnc(-n3cccc3)s2)CC1)N1CCN(c2ccc(F)cc2)CC1 | 1 | -0.072
CCc1ccc(Sc2cc(C(=O)NCc3ccccn3)c3ccccc3n2)cc1 | 1 | 1.4
O=C(Nc1ccc(Cl)cc1)Nc1nnc(N2CCCCCC2)s1 | 1 | 0.1
Cc1cccc(-c2nc(Nc3c(F)cccc3F)c3ccccc3n2)c1 | 1 | 0.032
CCN1CCN(CCCNC(=O)c2cn(C3CCCCC3)c(=O)c3c2c2ccccc2n3C)CC1 | 1 | 0.59
C=CCn1c(CCNC(=O)c2ccc(F)cc2)nc2ccccc21 | 0.94 | -1.8
(more compounds)
SMILES | CBX7 inh | CBX7 inh z-score
CCOc1ccccc1NC(=O)c1c(NCc2sccc2C)sc2c1CCCC2 | 0.62 | -5.3
CCOc1ccc(NC(=O)C(C(C)C)N2C(=O)c3ccccc3C2=O)cc1 (configuration not stated) | 0.82 | -0.73
O=C(Nc1ccc(-c2noc(-c3ccccc3Br)n2)cc1)c1cccnc1 | 1 | 0.064
O=C(O)CC12CC3CC(CC(Br)(C3)C1)C2 | 0.78 | -2.3
O=C(CCc1nc(-c2ccccc2F)no1)NCCc1ccc(Cl)cc1 | 0.87 | -2
COc1ccc(C(=O)Nc2cccc(-c3nc4ncccc4o3)c2C)cc1OC | 1.1 | 1.1
COC(=O)CNC(=O)c1c(-c2c(Cl)cccc2Cl)noc1C | 0.99 | -0.39
CCc1ccc(NC(=O)CSc2nccn2-c2cccc(C)c2C)cc1 | 0.98 | -0.024
COc1ccccc1-c1c(C)nn2c(NCCCN3CCOCC3)cc(C)nc12 | 1 | 1.1
CCc1ccc(NC(=O)C2CC(=O)N(c3ccccc3)C2)cc1 (configuration not stated) | 1.1 | 2.3
O=C(Nc1nc2ccc(Cl)cc2s1)c1cccc(Oc2ccccc2)c1 | 1 | 1.3
COc1ccc(CCNC2CC(=O)N(c3ccc(Cl)cc3)C2=O)cc1 (configuration not stated) | 1 | 0.2
Cc1ccc(NC(=O)CSc2ccc(Nc3ccc(C)cc3)nn2)cc1 | 1.1 | 0.84
CCOc1ccc(NC(=O)CN(c2ccc(C(C)C)cc2)S(=O)(=O)c2c(C)nn(C)c2C)cc1 | 1.1 | 0.98
COc1ccc(-c2csc(NC3=NS(=O)(=O)c4ccccc43)n2)cc1OC | 0.96 | -0.58
CCN(CC)CCCNC(=O)C1CCN(c2cc(C)nc3c(-c4ccc(Cl)cc4)c(C)nn23)CC1 | 1.2 | 0.39
Cc1ccc(Cn2nnc3c(=O)n(Cc4cc(C)ccc4C)cnc32)cc1 | 1.1 | 0.83
CC1CCCCN1CCNC(=O)CN1C(=O)CC(C)(C)Sc2ccccc21 (configuration not stated) | 1.1 | 2.2
CC1CCN(C(=O)CSc2nnc(Cc3ccccc3)o2)CC1 | 1.1 | 1.5
c1ccc(-c2nnc(-c3cccs3)c3nocc23)cc1 | 0.93 | -0.73
Cc1ccc(Cn2c(C(=O)NCc3ccccc3)cc3sccc32)cc1 | 0.91 | -2.5
CC(C)c1ccc(NC(=O)Cn2nc(Cc3ccncc3)c3ccccc3c2=O)cc1 | 0.94 | -1.9
CCOC(=O)c1c[nH]c2ccc3c(cc(-c4ccccc4)n3C)c2c1=O | 0.87 | -0.46
COc1ccc(CNS(=O)(=O)c2cnc[nH]2)cc1 | 1.1 | 0.6
CS(=O)(=O)CC[C@@H](C(=O)Nc1ccccc1Cl)N1Cc2ccccc2C1=O | 0.94 | -1.2
COc1ccc(-c2noc(CN3C(=O)c4ccccc4S3(=O)=O)n2)cc1 | 1.1 | 2.5
COc1cccc(-c2cc(C(=O)N(C)c3ccccc3)no2)c1 | 1.1 | 0.77
CCCN(C(=O)CCc1nc(-c2ccc(C)cc2)no1)c1ccc(F)cc1 | 1.1 | 3.1
CCOc1ccccc1C(=O)N1CC(=O)Nc2ccc(Br)cc2C1c1ccc(F)cc1 (configuration not stated) | 0.97 | -0.57
O=C(NC1CC1)C1CC(=O)N(c2ccc(F)c(Cl)c2)C1 (configuration not stated) | 1 | 1.4
COc1ccc(-c2cc(C(F)(F)F)nc(N3CCCCC3)n2)cc1OC | 1.4 | 19
Cc1[nH]c2ccccc2c(=O)c1CN(C)C1CCCCC1 | 1 | 0.24
Cc1ccc(NS(=O)(=O)c2cc(Br)cc3c2N(C(=O)C2CC2)CC3)cc1C | 0.9 | -2.6
CCCC(C)NC(=O)c1cc(-c2ccccc2)nc2ccccc12 (configuration not stated) | 1.1 | 1.4
NC(=O)Cn1c(=O)n(CCCC(=O)NCc2ccccc2)c(=O)c2sccc21 | 1 | 0.48
O=c1cc(N2CCN(Cc3ccccc3)CC2)[nH]c(=O)n1Cc1ccc(F)cc1 | 0.94 | -1.1
Clc1ccccc1-c1nn2c(-c3ccccc3)nnc2s1 | 1.1 | 2.7
COc1ccccc1Nc1cc(C(=O)NCCC2=CCCCC2)c2ccccc2n1 | 1.2 | 0.23
CCSc1nnc(NC(=O)CSc2nc3ccccc3o2)s1 | 0.97 | -0.79
CC(=O)Nc1ccc(NC(=O)C2CCCN(c3nnc(-n4cccc4)s3)C2)cc1 (configuration not stated) | 0.9 | -2.1
CC(=O)Nc1ccc(NC(=O)c2cccc(N3C(=O)c4ccccc4C3=O)c2)cc1 | 1.2 | 0.76
Cc1ccc(Nc2nc(-c3ccc(S(=O)(=O)N4CCOCC4)cc3)cs2)cc1 | 0.98 | -0.21
O=C(NCCCN=C1NS(=O)(=O)c2ccccc21)c1ccc(Cl)cc1 | 1 | 0.77
O=C(c1ccc2c(=O)n3c(nc2c1)CCCCC3)N1CCN(c2ncccn2)CC1 | 0.97 | -0.066
CCOc1ccccc1NC(=O)Cn1ncc2c1-c1cc(C)ccc1OC2 | 1.1 | 2.4

Nothing new here: an excerpt of the list.
SMILES | CBX7 inh | CBX7 inh z-score
Cc1nc2cc(NC(=O)c3ccc(S(=O)(=O)N4CCOCC4)cc3)ccc2s1 | 1.1 | 1.6
CCN(CC)C(=O)COc1ccc(-c2nnc(Nc3ccc(F)cc3)c3ccccc23)cc1 | 0.79 | -2.4
COc1cc2c(cc1OC)C(c1ccc(-c3ccccc3)cc1)CC(=O)N2 (configuration not stated) | 0.61 | -1.6
COc1ccc(-c2noc(CCC(=O)NCc3cc(Br)ccc3OC)n2)cc1 | 0.85 | -0.15

(next part)
SMILES | CBX7 inh | CBX7 inh z-score
COc1cc2c(c(OC)c1OC)-c1ccc(OC)c(=O)cc1[C@@H](NC(C)=O)CC2 | 0.99 | -0.52
COc1ccc(C(=O)Cn2c(N3CCOCC3)nc3ccccc32)cc1OC | 0.96 | -0.8
CN(Cc1ccccc1)c1oc(COc2ccccc2F)nc1C#N | 0.42* | -3.6*
Cc1ccccc1N1CC(C(=O)Nc2ccc(F)cc2)CC1=O (configuration not stated) | 1 | 0.035
CCOc1ccc2nc(Nc3nc(C)c(C)c(=O)[nH]3)nc(C)c2c1 | 1.1 | 1.2
COc1ncc2ccn(Cc3ccccc3)c2c1C#N | 0.85 | -0.41

Single records, as listed above. Screens in order: CBX7 inh | CBX7 inh z-score
CN(Cc1ccccc1)c1oc(COc2ccccc2F)nc1C#N in the list: 0.42* | -3.6*
Cc1ccccc1N1CC(C(=O)Nc2ccc(F)cc2)CC1=O (configuration not stated) in the list: 1 | 0.035
COc1ccc(C(=O)Cn2c(N3CCOCC3)nc3ccccc32)cc1OC in the list: 0.96 | -0.8
COc1cc2c(c(OC)c1OC)-c1ccc(OC)c(=O)cc1[C@@H](NC(C)=O)CC2 in the list: 0.99 | -0.52
CCOc1ccc2nc(Nc3nc(C)c(C)c(=O)[nH]3)nc(C)c2c1 in the list: 1.1 | 1.2

This is a subset; rates above refer to the full screens.
